ALR H2O2 inh = inhibitors of human ALR sulfhydryl oxidase, primary screen, biochemical, H2O2 detection, HRP-luminol luminescence, single point | FAD-linked sulfhydryl oxidase ALR (Homo sapiens), P55789 | purified ALR, DTT oxidation | AID 485317, 2010 | 3.8% of 290,000 active | inhibition, % (test concentration not listed);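 active = mean and each replicate at 75% or more; inconclusive = only one of the two met; inactive = neither met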;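 also: stock transfer was 7.5 nL into about 7.5 µL; 0% = neutral wells and 100% = wells with inactivated enzyme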
Target sequence (P55789 whole entry, looked up): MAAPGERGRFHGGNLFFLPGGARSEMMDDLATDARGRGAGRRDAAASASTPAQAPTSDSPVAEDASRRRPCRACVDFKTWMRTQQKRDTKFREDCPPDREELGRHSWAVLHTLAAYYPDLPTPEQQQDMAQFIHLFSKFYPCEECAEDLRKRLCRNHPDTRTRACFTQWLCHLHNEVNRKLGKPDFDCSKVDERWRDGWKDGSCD
rRNA inh HTS = reduced GFP signal of wild-type E. coli, primary screen, bacterial rRNA inhibitor project, GFP/RFP fluorescence, OD600, single point. E. coli WT GFP vs humanized-ribosome RFP mutants, 24 h; stronger effect = lower value; DMSO median 0, no signal -100. GFP signal change (wild-type ribosome), % (test concentration not listed). 1.6% of 350,000 active;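 active = significant combined selectivity score with lowered wild-type GFP, culture density cut under 30%, mutant RFP and density less affected; inactive = any of these conditions unmet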; also: one replicate is shown; some compounds called inactive have numbers as strong as hits
FGF22 binding = binders of human FGF22 protein, primary screen, FGF22 synaptogenesis inhibitor project, biophysical, thermal shift, single point; Fibroblast growth factor 22 (Homo sapiens), Q9HCT0; calls only at 9.99 µM; AID 651658, 2012; 1.5% of 340,000 active; recombinant FGF22 thermal shift, SYPRO orange fluorescence; percent of sucrose octasulfate shift, DMSO zero;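 active = melting point raised past a set limit in the mean and every replicate; inconclusive = no clear call; three in four hits are not shown here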
Target sequence (Q9HCT0 whole entry, looked up): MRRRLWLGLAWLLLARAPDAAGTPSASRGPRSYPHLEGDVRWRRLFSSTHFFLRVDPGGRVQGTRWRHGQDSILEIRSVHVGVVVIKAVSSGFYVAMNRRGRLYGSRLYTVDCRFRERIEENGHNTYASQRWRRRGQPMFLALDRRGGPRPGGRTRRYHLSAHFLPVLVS
HNF4A DNA FP = change in binding of human HNF4A to DNA, primary screen, biochemical, fluorescence polarization, FITC-DNA | Hepatocyte nuclear factor 4-alpha (Homo sapiens), P41235 | 1 h | activity change, % at 10 µM | 0.3% of 360,000 active | AID 1224865, 2016; in the data active = activity change above about 30%, passing the limit was not always enough;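 also: controls were the assay level and a saturating level of protein; the project sought stronger binding though the title names inhibitors; some compounds called inactive have numbers as strong as hits; positive values seem to mean higher polarization but the record does not say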
Target sequence (P41235 whole entry, looked up): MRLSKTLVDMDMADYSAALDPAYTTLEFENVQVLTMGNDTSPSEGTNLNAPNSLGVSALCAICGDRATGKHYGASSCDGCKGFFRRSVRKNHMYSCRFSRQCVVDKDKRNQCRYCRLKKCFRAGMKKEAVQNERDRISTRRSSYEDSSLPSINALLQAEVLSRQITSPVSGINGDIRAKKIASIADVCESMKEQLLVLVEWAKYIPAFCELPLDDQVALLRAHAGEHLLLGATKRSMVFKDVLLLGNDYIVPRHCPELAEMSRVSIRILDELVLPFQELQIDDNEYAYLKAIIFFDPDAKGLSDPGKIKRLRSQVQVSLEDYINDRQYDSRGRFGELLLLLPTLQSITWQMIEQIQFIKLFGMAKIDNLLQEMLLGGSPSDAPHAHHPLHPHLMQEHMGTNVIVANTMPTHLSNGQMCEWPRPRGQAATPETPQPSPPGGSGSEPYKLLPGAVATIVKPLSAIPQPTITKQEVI
MLL AF4-AF9 inh = inhibitors of AF4 peptide binding to AF9, primary screen, biochemical, AlphaScreen, biotin-AF4 peptide, FLAG-AF9, single point; inhibition, % at 10 µM; AID 651704, 2012; 0.47% of 350,000 active; Protein AF-9 (Homo sapiens), P42568;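 active = every replicate reaching a set inhibition limit, whatever the replicate mean, cut at about 25% in these data; inconclusive = mean inhibition reaches that limit but some replicates miss it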;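 also: 0% = plate neutral control median and 100% = total signal loss; the record names both 10 and 1 µM as test concentration; the first replicate is given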
Ecoli growth = E. coli growth inhibition, primary screen, OD600; AID 1053175, 2014; 0.21% of 330,000 active; Escherichia coli growth, 23 h; stronger effect = lower value; OD600 absorbance (concentration not given with the values);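 active = OD600 absorbance below the run mean of sample wells minus 3.6 SD, in any replicate, cut at about 0.56 in these data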;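 also: stock transfer was 300 nL into about 60 µL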
Vif TR-FRET = inhibitors of Vif binding to APOBEC3G peptide, primary screen, biochemical, TR-FRET, GST-Vif 1-94, biotin-A3G peptide, dose response retest (AID 1117319) | inhibition, %; hits with a dose series show IC50 in µM | TR-FRET GST-Vif / biotin-A3G peptide binding; higher % means a stronger effect; test concentration not given here; strong numbers were not always called active | 0.57% of 260,000 active;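 active = above the screen mean plus three standard deviations and confirmed in dose response; inconclusive = results disagree or hit not tested in dose response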;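 also: Vif residues 1-94 fused to GST binding biotinylated APOBEC3G peptide 110-148; 0% = full assay without inhibitor and 100% = GST in place of GST-Vif; retest series ran down from 100 µM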
rRNA inh HTS OD600 = also measured in rRNA inh HTS; calls as there; OD600 change, %; measured here: OD600 growth;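 optical density of the mix in the first replicate; 0 = DMSO median and -100 = no signal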
rRNA inh HTS RFP = recorded beside rRNA inh HTS, whose call it bears; RFP signal change, %; measured here: RFP humanized mutant strains;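 first replicate; 0 = DMSO median and -100 = no signal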
The depositor's hits bear a star; i = inactive; ? = inconclusive; / = not tested or not shown; & = joins results of further samples. An excerpt. The share of hits here may be higher or lower than overall.

SMILES	ALR H2O2 inh	rRNA inh HTS	rRNA inh HTS OD600	rRNA inh HTS RFP	FGF22 binding	HNF4A DNA FP	MLL AF4-AF9 inh	Ecoli growth	Vif TR-FRET
CN(CCc1ccccc1)C(=O)c1ccc(NC(=O)Cc2ccc(NC(=O)C3CCCN(S(=O)(=O)c4cccc([N+](=O)[O-])c4)C3)cc2)cc1 (centres undefined)	/	1	4	1.4	i	1.6	0.8	0.72	5%
COc1cc2c(cc1OC)CN(C(=O)c1cc(S(=O)(=O)N3CCOCC3)c(Cl)cc1Cl)CC2	-3	0	-10	0.7	i	3.1	4.2	0.73	/
CCCCc1cc(=O)oc2cc(OCc3cc(OC)c(OC)c(OC)c3)c(Cl)cc12	/	/	/	/	/	0.2	/	0.73	-3%
COc1ccc(-c2nc3ccccc3o2)cc1OC	2	-4	3	-0.9	i	-5.6	-1.3	/	-6%
Nc1nc(-c2cc(O)ccc2[N+](=O)[O-])cc(-c2ccccc2)c1[N+](=O)[O-]	-8	-4	9	2.9	i	-20	-1.3	/	17%
Cc1noc(C)c1S(=O)(=O)N(C)C[C@@H]1Oc2ccc(NS(=O)(=O)c3ccccc3)cc2CC(=O)N([C@H](C)CO)C[C@H]1C	/	3	7	-0.8	i	/	3.6	/	/
Cc1cc(OCC(=O)Nc2ccc(N3CCN(C)CC3)cc2)ccc1Cl	-5	3	6	-0.8	i	-4.1	7.6	0.65	/
COc1ccc(Nc2nc(NCCN3CCOCC3)nc(Nc3ccc(OC)cc3)n2)cc1	52	-5	-4	-2.0	i	1.4	20	0.67	-4%
Cc1cc(N2CCN(C)CC2)nc2ccc(NC(=S)NCCN3CCc4ccccc4C3)cc12	-77	-4	-10	-8.3	i	11	?	0.65	27%
COc1ccc(NC(=O)N(C)C[C@@H]2Oc3ccc(NC(=O)Nc4cccc5ccccc45)cc3C(=O)N([C@H](C)CO)C[C@H]2C)cc1	/	0	2	-1.6	i	/	1.5	/	/
COc1ccc(NC(=S)NCC2CCN(c3ccc(OC)cc3)C2)cc1 (centres undefined)	/	-22	-21	-0.2	i	6.8	29*	0.72	/
CCCCOC(=O)c1ccc(NC(=O)C(=O)NCc2ccccn2)cc1	-8	3	0	-0.4	i	-2.5	-2.3	0.65	5%
Cc1ccccc1C(=O)Nc1c(C(=O)N2CCN(C)CC2)cnn1-c1ccccc1	/	/	/	/	i	-4.0	-6.7	0.65	/
COc1ccccc1/C=C/C(=O)OCC(=O)NCc1ccc2c(c1)OCO2	/	0	-15	0.4	i	0.0	-1.6	0.71	/
CN1CCN(C(CNC(=O)c2ccc(Br)o2)c2ccc(F)cc2)CC1 (centres undefined)	-2	4	12	-2.7	i	-2.1	-0.3	0.72	47%
CCCCNC(=O)CSc1nc(N)c(C(=O)Nc2ccc(OC)cc2)s1	-15	2	-3	5.7	i	0.1	1.1	0.69	-8%
Cc1cccc(C(=O)OCC(=O)c2ccc3c(c2)OCO3)c1O	-23	7	7	-0.2	i	0.4	-0.8	0.73	-6%
CCC(=O)Nc1sc(Cc2ccc3c(c2)OCO3)c(C)c1C(N)=O	2	-26*	6.8*	5.4*	i	1.0	-5.4	0.66	-5%
CN1/C(=C/C=C(C#N)C#N)C=Cc2ccccc21	3	31	5	22	i	138	/	0.75	-82%
O=C(NCc1ccccc1)C1CC(=O)N(c2ccc(OCC(=O)N3CCCC3)cc2)C1 (centres undefined)	-5	/	/	/	/	0.8	/	0.74	?
Cc1ccc(S(=O)(=O)N2CCN(CC(=O)N/N=C/C=C/c3ccccc3)CC2)cc1	1	/	/	/	/	1.6	/	/	-6%
CN(C)C(=O)c1nc2ccc(Cl)cn2c1CN1CCCC(OCc2cccnc2)C1 (centres undefined)	-1	7	13	1.9	i	-1.5	-4.2	0.68	/
O=C(NC(=S)NN1CCCCC1c1cccnc1)c1ccc(Br)cc1 (centres undefined)	-2	/	/	/	i	-1.9	1.8	0.68	-8%
COc1ccc2c3c(n(C)c2c1)[C@H](CO)N(C(C)=O)CC31CCN(C(=O)NC(C)C)CC1	/	3	0	-1.4	i	/	-0.3	/	/
CCOC(=O)c1ccc(NC(=O)CN(Cc2ccc(Cl)cc2)S(C)(=O)=O)cc1	-16	/	/	/	/	-0.3	/	0.64	-2%
Cc1noc(C)c1NC(=O)N(C)C[C@H]1Oc2cc(C#CCC3CCCC3)ccc2S(=O)(=O)N([C@@H](C)CO)C[C@H]1C	/	-3	-17	9.5	i	/	3.0	/	/
CCCn1nnnc1NCc1ccc(C(C)C)cc1	-1	10	3	0.7	i	0.4	-5.1	0.59	-5%
C=C(C)c1cccc(C(C)(C)NC(=O)NCCCN2CCCC2=O)c1	4	/	/	/	/	2.3	/	0.67	-4%
O=C(COC(=O)C1(c2ccc(F)cc2)CCCC1)N1CCNC1=O	2	1	-11	-1.2	i	-3.5	0.4	0.7	6%
CCOc1ccc(C(=O)NC(C)CCc2ccccc2)cc1 (centres undefined)	-7	10	-9	-0.2	i	-1.2	1.7	0.7	1%
CCS(=O)(=O)N1CCC2(CC1)OCCN2S(=O)(=O)c1ccc(OC)cc1	/	6	2	1.8	i	0.3	-1.0	0.69	-3%
CCOC(=O)c1cc(C)sc1NC(=O)CSC1=NCCS1	5	-4	0	6.0	i	-0.3	-0.3	0.61	/
O=S(=O)(c1cnccc1N1CCN(/N=C/c2ccccc2)CC1)N1CCCCC1	-6	/	/	/	/	2.5	/	/	-3%
Cc1ccc(N2C(=O)CCC2=O)c(C)c1	-8	8	4	2.2	i	-0.1	-0.8	0.65	/
COc1ccc2ccccc2c1CNC(=O)CC1C(=O)NCCN1CC(C)(C)C (centres undefined)	-16	0	-1	3.6	i	7.8	8.3	0.69	?
COc1ccc(S(=O)(=O)Nc2cccc3c2O[C@@H](CN(C)Cc2ccc(-c4ccccc4)cc2)[C@H](C)CN([C@H](C)CO)C3=O)cc1	/	7	7	-0.3	i	/	-0.8	/	/
CCOC(=O)c1c(C)oc2c1c(C(c1ccncc1)N1CCOCC1)c(O)c1ccccc12 (centres undefined)	12	/	/	/	/	/	/	0.73	7%
CC(NC(=O)c1ccc(Br)o1)c1ccccc1 (centres undefined)	-22	3	3	-2.2	i	1.3	0.8	0.67	0%
O=C(C[C@H]1C=C[C@H](NC(=O)c2cccc(F)c2)[C@H](CO)O1)NCCN1CCCC1	/	-2	9	0.0	i	/	-1.9	/	/
CN1C[C@@H]2[C@@H]3C(=O)N(Cc4ccccc4)C(=O)[C@@H]3[C@](C)(C1=O)N2C(=O)c1ccc(C(F)(F)F)cc1	/	2	3	12	i	1.2	-0.7	/	/
C[C@@H]1CN([C@@H](C)CO)C(=O)c2cccc(NC(=O)Nc3ccccc3)c2O[C@@H]1CN(C)Cc1ccc(Cl)c(Cl)c1	/	-17	-23	4.5	i	/	0.8	/	/
CCOC(=O)c1c(NC(=O)C2CCCO2)sc(C(N)=O)c1C (centres undefined)	-1	/	/	/	/	-0.1	/	0.7	/
CCC(=O)N[C@@H]1CC(C(C)(C)NC(=O)CC)CC=C1C (some centres undefined)	0	/	/	/	/	-0.4	/	0.75	0%
CCCCCn1c(=N)c(S(=O)(=O)c2ccc(Cl)cc2)cc2c(=O)n3cccc(C)c3nc21	0	/	/	/	/	-2.0	/	0.68	/
CC1CCC(NC(=O)c2ccc3c(c2)S(=O)(=O)c2ccccc2C3=O)CC1 (centres undefined)	11	/	/	/	/	-2.1	/	0.67	/
CO[C@@H]1CC[C@H]2CCN(C)C(=O)[C@H](C)[C@H](OC)CN(C)C(=O)c3cc(C#N)ccc3OC[C@H]1O2	/	4	4	-3.7	i	/	-6.3	/	/
C[C@H](CO)N1C[C@H](C)[C@H](CN(C)C(=O)Cc2cccnc2)Oc2ncc(Br)cc2C1=O	/	6	-5	-3.2	i	1.3	-4.4&-3.0	/	3%
C[C@@H]1CN([C@H](C)CO)C(=O)c2cc(NS(C)(=O)=O)ccc2O[C@@H]1CN(C)S(C)(=O)=O	/	7	19	0.8	i	/	-4.2	/	/
O=C(NCc1ccccc1)C1c2ccccc2Oc2ccccc21	1	6	29	2.3	i	0.1	-5.7	0.71	2%
NC(=O)c1ccc(C(=O)N/N=C/c2cccc(Oc3ccccc3)c2)cc1	-20	4	9	-1.1	i	2.1	-5.4	/	4%
CCCc1nc2ccccc2n1CCOc1ccccc1	/	/	/	/	/	1.8	/	0.66	-2%
CC(C)(C)OC(=O)NCCc1nnc(SCc2c(Cl)cccc2Cl)o1	-8	/	/	/	/	3.3	/	0.67	2%
CC(C)c1ccc(NC(=O)C2CC(=O)Nc3nc4ccccc4n32)cc1 (centres undefined)	-3	11	8	-2.6	i	-1.5	6.1	0.74	9%
CCCNC(=O)N1CCC2(CC1)CN(Cc1cccc(F)c1)[C@H](CO)c1[nH]c3cc(OC)ccc3c12	/	1	-5	1.7	i	/	-0.4	/	/
Cc1ccccc1/C=C\c1nc2ccccc2c(=O)[nH]1	-3	15	25	5.7	i	10	-2.8	0.66	-6%
O=C(NCc1ccccc1)c1cc(C2CCCCN2S(=O)(=O)c2cccs2)on1 (centres undefined)	/	1	-11	2.1	i	-0.2	-1.7	/	/
CC(C)CCNC(=O)C1CCC(CNc2c(N3CCCC3)c(=O)c2=O)CC1 (centres undefined)	-3	11	8	-1.8	i	0.6	8.7	0.68	-2%
CC(=O)c1cccc(NC(=S)NC(=O)c2cccc(C)c2)c1	/	-13	-5	-5.3	i	0.2	1.2	0.67	?
CC(C)(C)[C@H]1COC(=O)[C@H](NC(=O)OCC2c3ccccc3-c3ccccc32)C/C=C\C[C@@H](CC(=O)N[C@H](CO)Cc2ccccc2)C(=O)N1	-3	1	3	-2.1	i	2.4	/	/	/
C[C@H]1CN([C@@H](C)CO)C(=O)c2cccc(NS(=O)(=O)c3cn(C)cn3)c2O[C@H]1CN(C)Cc1ccc(-c2ccccc2)cc1	/	-1	2	-1.0	i	/	1.8	/	/

The results go on.
SMILES	ALR H2O2 inh	rRNA inh HTS	rRNA inh HTS OD600	rRNA inh HTS RFP	FGF22 binding	HNF4A DNA FP	MLL AF4-AF9 inh	Ecoli growth	Vif TR-FRET
O=C(Nn1c(=O)[nH]c2ccsc2c1=O)c1ccccc1	-3	/	/	/	/	-1.0	/	0.66	1%
COc1ccc(-c2nc3ccccc3o2)cc1NC(=O)c1ccc(Br)o1	0	/	/	/	/	4.6	/	0.77	-1%
O=C(Nc1ccc(SC(F)F)cc1)C1=CC=CN2CCS(=O)(=O)N=C12	-4	14	11	3.9	i	-1.0	-7.1	0.67	-5%
CC(=O)c1ccn(S(=O)(=O)c2ccc(Cl)cc2)c1	3	3	-4	4.1	i	-0.1	4.8	0.63	-4%
CCOC(=O)C1CCN(C(=O)c2cn(CCOC)c(=O)c3c2c2ccccc2n3C)CC1	/	-3	-8	-2.0	i	-4.7	0.7	0.68	-2%

Reprinted at random: two compounds from above.
SMILES	ALR H2O2 inh	rRNA inh HTS	rRNA inh HTS OD600	rRNA inh HTS RFP	FGF22 binding	HNF4A DNA FP	MLL AF4-AF9 inh	Ecoli growth	Vif TR-FRET
CC(=O)c1ccn(S(=O)(=O)c2ccc(Cl)cc2)c1	3	3	-4	4.1	i	-0.1	4.8	0.63	-4%
O=C(Nc1ccc(SC(F)F)cc1)C1=CC=CN2CCS(=O)(=O)N=C12	-4	14	11	3.9	i	-1.0	-7.1	0.67	-5%
